# Source: PubChem
# D2 potentiator – positive allosteric modulators of human D2 dopamine receptor; P14416; DiscoveRx D2 beta-arrestin cells, luminescence, 90 min; 100% = 57 uM dopamine signal; potentiation, % (concentration not given with the values); actives 0.23% (n = 360,000); AID 624464; active = potentiation of 50% or more; inconclusive = 30% to 50%; inactive = 30% or less;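 also: compound concentration not given in the record; tested on top of an EC20 dose of dopamine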
# Target sequence (P14416 whole entry, looked up): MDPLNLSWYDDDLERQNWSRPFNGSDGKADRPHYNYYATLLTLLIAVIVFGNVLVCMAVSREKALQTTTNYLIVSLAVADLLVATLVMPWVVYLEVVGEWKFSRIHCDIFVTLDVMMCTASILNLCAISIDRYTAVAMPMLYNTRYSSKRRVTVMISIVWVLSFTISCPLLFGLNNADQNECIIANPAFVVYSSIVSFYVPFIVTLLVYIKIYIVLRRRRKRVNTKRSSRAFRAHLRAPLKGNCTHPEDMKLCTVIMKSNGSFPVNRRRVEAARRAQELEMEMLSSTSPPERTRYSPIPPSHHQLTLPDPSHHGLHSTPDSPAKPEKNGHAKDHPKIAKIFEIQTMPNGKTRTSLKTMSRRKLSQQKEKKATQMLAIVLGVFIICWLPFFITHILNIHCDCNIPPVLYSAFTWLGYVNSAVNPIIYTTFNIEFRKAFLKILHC
#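 PathHunter beta-arrestin assay in DiscoveRx D2 cells. Compounds were added with an EC20 of dopamine (50 nM final) for 90 min at 37 deg C. Luminescence was read 1 h after detection reagent, with 57 uM dopamine as the EC100 control.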
# Six1-Eya2 blk – inhibitors of human Six1/Eya2 interaction; Q15475+O00167; actives 0.56% (n = 360,000); AID 651725; activity change, % (concentration not given with the values); AlphaScreen GST-Six1/His-Eya2 binding, biochemical; active compounds read low; control for the full effect not named in the record; in the data active = activity change below about -65%; inconclusive = about -30% to -65%; inactive = above about -30%; also: % is scaled to controls: 0 for no effect and ±100 for the full control effect
#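 GST-Six1 + His-Eya2 (5X stock: 250/500 nM); Tris pH 8.0, 300 mM NaCl, 0.05% BSA, 0.02% Tween 20; GSH donor/Ni acceptor beads; 1 h 37 °C dark; AlphaScreen readout.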
# TRPML1 inh – inhibitors of human TRPML1 channel. activity change, negative = inhibition, % (test concentration not listed). Q9GZU1. actives 0.02% (n = 390,000). AID 624415. TRPML1-inducible cells, Ca2+ dye fluorescence, FDSS; active compounds read low; inhibition of EC80 agonist-evoked calcium signal; in the data active means activity change below about -50%; inconclusive means about -30% to -50%; inactive means above about -30%;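 also: stimulus is agonist 54-4 at its EC80 concentration; % is scaled to controls: 0 for no effect and ±100 for the full control effect; compound concentration not given in the record; the text of the record puts the active cut at -80%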
# Target sequence (Q9GZU1 whole entry, looked up): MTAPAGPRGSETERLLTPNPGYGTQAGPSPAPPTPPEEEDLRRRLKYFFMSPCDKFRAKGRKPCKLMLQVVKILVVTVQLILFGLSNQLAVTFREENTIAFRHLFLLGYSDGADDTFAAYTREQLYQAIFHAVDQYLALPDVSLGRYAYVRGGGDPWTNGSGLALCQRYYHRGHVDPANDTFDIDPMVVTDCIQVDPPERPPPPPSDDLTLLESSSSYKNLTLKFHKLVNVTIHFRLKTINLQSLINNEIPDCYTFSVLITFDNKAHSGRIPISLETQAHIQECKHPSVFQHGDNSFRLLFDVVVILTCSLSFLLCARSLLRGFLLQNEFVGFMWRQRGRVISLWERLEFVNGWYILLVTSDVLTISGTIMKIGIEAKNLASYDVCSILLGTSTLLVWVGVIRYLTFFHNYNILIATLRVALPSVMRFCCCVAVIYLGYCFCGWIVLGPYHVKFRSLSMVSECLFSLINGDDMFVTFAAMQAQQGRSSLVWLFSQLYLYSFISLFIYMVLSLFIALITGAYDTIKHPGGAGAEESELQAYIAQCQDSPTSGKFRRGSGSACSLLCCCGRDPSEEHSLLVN
#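 TRPML1-DL cells, Tet-induced overnight (~16 h, 37 °C) at 1,500 cells/well, were loaded with Ca8 no-wash dye plus quencher for 45-90 min at room temperature. Compounds were pinned during FDSS kinetic reading; agonist 54-4 at EC80 (4 uM final) then added.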
# PINK1 expr mod – PINK1 expression modulation; PINK1 immunofluorescence, high-content cytometry, 24 h; Potency, µM (top dose mostly 76.6 µM), for the others: at the top dose activation (PINK1 increase), hits mostly activators; actives 0.2% (n = 410,000); active = well fitted activation curve with a large enough effect; inconclusive = small, poorly fitted or top-dose-only effect; inactive = flat fitted curve, though single readings scatter; cell line not stated here;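 also: potency is read from the fitted curve at half-maximal effect; % of control where 0% means no effect; nearly all actives have a fitted effect of over 65% in size; a mitochondrial uncoupler was the plate control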
#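 A stable cell line was treated with compounds at 5 concentrations for 24 hours, with CCCP as control. PINK1 levels and mitochondrial localization were measured by immunofluorescence with mitochondrial, cell and nuclear markers after fixation, read by laser-scanning cytometry.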
# D2 agonist – activates the human D2 dopamine receptor; DiscoveRx PathHunter D2 beta-arrestin, luminescence, 90 min; 100% = 57 uM dopamine signal; AID 624465; activation, % (concentration not given with the values); actives 0.084% (n = 360,000); in the data active = activation above about 40%; inconclusive = about 15% to 40%; inactive = below about 15%; also: compound concentration not given in the record; the text of the record calls up to 30% inactive
#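 Agonist mode: compounds alone added to overnight-plated D2 PathHunter cells for 90 min at 37 C, with 57 uM final dopamine (EC100) defining full response. Beta-arrestin recruitment detected by chemiluminescent reagent, read after 1 h at ambient temperature.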
# TRPML1 ag – agonists of human TRPML1 channel; Q9GZU1; TRPML1-expressing cells, Ca2+ dye fluorescence, FDSS; host cell line not named in the record; reference of the full effect not given here; activation, % (test concentration not listed); actives 0.12% (n = 410,000); AID 624414; in the data active = activation above about 50%; inconclusive = about 30% to 50%; inactive = below about 30%; also: 0% is about no effect; the text of the record puts the active cut at 80%
#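 Tet-induced TRPML1-DL cells, 1,500 per well, cultured overnight, were loaded with a no-wash Ca2+ dye for 45–90 min. Calcium fluorescence was recorded on the FDSS for 110 s after compound addition, before the EC80 agonist (4 uM 54-4) was added.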
# Numbers without * were called inactive; ? = inconclusive; · = not tested or not shown; [ ] = another dose, or the depositor's remark. Random draw from the library (roughly 1% active in at least one column).
SMILES,D2 potentiator,Six1-Eya2 blk,TRPML1 inh,PINK1 expr mod,D2 agonist,TRPML1 ag
Clc1cccc(Cl)c1-c1noc(CN2CCOCC2)n1,-19,4,-1,0.6%,-5.0,-0.4
Cc1c([N+](=O)[O-])cc(S(=O)(=O)Nc2ccncc2)cc1[N+](=O)[O-],3,1,0,1.4%,-1.2,-0.3
O=C(NC(=S)NCCC1=CCCCC1)c1ccc(Br)o1,1,-3,-8,9.1%,-3.9,2.3
Cn1c(=O)n(C)c2cc(/C=N/NC(=O)c3ccc(Cl)cc3)ccc21,-18,-6,·,9.0%,-0.4,·
Nc1nonc1-n1nnc(C(=O)N/N=C/c2ccccc2Cl)c1CSc1ccccc1,-12,-1,-20,1.2%,1.0,0.3
O=C(O)c1cncc(Br)c1,1,6,-20,0.5%,2.4,0.5
Cc1cc(-c2nc3ncccc3o2)ccc1NC(=S)NC(=O)c1ccco1,3,4,-12,-0.6%,1.5,0.3
O=C(C[n+]1cc(-c2ccccc2)n2c1CCC2)Nc1nc(-c2ccccc2)cs1,-20,-5,31,1.0%,7.6,-0.7
CNC(=O)C[C@H]1C(=O)N(Cc2ccccc2)C[C@@H]1CSC,2,11,-9,-2.0%,-1.6,0.9
CCCn1nc(C(=O)Nc2ccc(S(=O)(=O)Nc3nccs3)cc2)c2ccccc2c1=O,1,1,19,-1.6%,-2.2,2.2
O=C(CNCc1ccco1)Nc1ccc(Oc2ccccc2)cc1,-12,-7,-11,3.7%,-0.1,1.0
N#Cc1c(N)n(CCOC(=O)c2cccc(Br)c2)c2nc3ccccc3nc12,14,-17,13,14%,0.2,-0.8
O=C(Nc1ccc(NC(=O)c2ccco2)c(Cl)c1)c1ccccc1,-4,0,-3,7.2%,-3.6,1.1
CC(=O)Nc1ccc(S(=O)(=O)NCc2ccc(C)n2C)cc1,9,-2,-11,1.0%,-1.5,-0.2
COC(=O)c1ccc(NC(=O)c2c(NCc3cccc(F)c3)sc3c2CCCC3)cc1,·,·,30,1.6%,·,0.0
OCCCNc1ncnc2c1[nH]c1ccccc12,-6,-12,-11,1.3%,-1.6,-0.3
Cc1ccc(NC(=O)CC2C(=O)N(Cc3ccccc3)C(=S)N2NC(=O)c2cccc(F)c2)c(C)c1 (stereo unspecified),-13,-2,12,11%,-9.3,-1.2
Cc1cccc(NC(=O)NCc2ccc3c(c2)cc(C)n3C)c1,-8,-23,5,8.0%,-0.4,-0.9
COc1cc(OC)c(NC(=O)NCc2cccn2Cc2ccccc2)cc1Cl,·,·,-27,0.0%,·,2.4
CCOc1ccc(C(=O)NCC(c2ccc3c(c2)OCO3)N2CCOCC2)cc1 (stereo unspecified),·,·,4,0.0%,·,0.8
COc1cc(-c2cc3nc4ccccc4n3c(N)c2C#N)cc(OC)c1OC,18,5,-15,2.2%,3.7,0.1
Cc1cc(C)n(CCC(=O)N2c3ccccc3CC2C)n1 (stereo unspecified),-11,3,-4,1.7%,-1.2,0.1
CC(=O)Nc1ccc(S(=O)(=O)c2ccnc3cc(Cl)ccc23)cc1,-21,-5,37,0.5%,-4.5,0.4
O=C(CSc1nnc2c(Cl)cc(Cl)cn12)N1CCN(S(=O)(=O)c2ccccc2)CC1,-15,-1,0,-1.2%,-1.9,-0.9
O=C(Nc1ccc(S(=O)(=O)Nc2ncccn2)cc1)C1CC(=O)N(c2ccccc2)C1 (stereo unspecified),-3,3,10,2.3%,-1.9,-0.2
Cc1ccc(S(=O)(=O)NNC(=O)Nc2ccccc2F)c(C)c1,-2,2,-14,0.2%,0.1,-0.5
CN(C)S(=O)(=O)c1ccc(C(=O)OCC(=O)N2CC3(C)CC2CC(C)(C)C3)cc1 (stereo unspecified),-3,6,-4,0.9%,5.0,-0.2
Cc1ccc(-c2nc3cc(C(C)C)ccc3o2)cc1NC(=O)c1cc2ccccc2o1,·,·,-10,-0.4%,·,1.5
CC(C)C1=Nc2cccc3cccc(c23)N1,17,-2,-7,-0.6%,11,-0.7
Cc1ccc(/C(N)=N/OC(=O)c2ccc(Cl)cc2Cl)cc1,?,-1,23,-5.7%,?,3.3

# Nothing new here: an excerpt of the list.
SMILES,D2 potentiator,Six1-Eya2 blk,TRPML1 inh,PINK1 expr mod,D2 agonist,TRPML1 ag
COC(=O)c1ccc(NC(=O)c2c(NCc3cccc(F)c3)sc3c2CCCC3)cc1,·,·,30,1.6%,·,0.0
OCCCNc1ncnc2c1[nH]c1ccccc12,-6,-12,-11,1.3%,-1.6,-0.3
Cc1ccc(NC(=O)CC2C(=O)N(Cc3ccccc3)C(=S)N2NC(=O)c2cccc(F)c2)c(C)c1 (stereo unspecified),-13,-2,12,11%,-9.3,-1.2
Cc1cccc(NC(=O)NCc2ccc3c(c2)cc(C)n3C)c1,-8,-23,5,8.0%,-0.4,-0.9
COc1cc(OC)c(NC(=O)NCc2cccn2Cc2ccccc2)cc1Cl,·,·,-27,0.0%,·,2.4
CCOc1ccc(C(=O)NCC(c2ccc3c(c2)OCO3)N2CCOCC2)cc1 (stereo unspecified),·,·,4,0.0%,·,0.8
COc1cc(-c2cc3nc4ccccc4n3c(N)c2C#N)cc(OC)c1OC,18,5,-15,2.2%,3.7,0.1
Cc1cc(C)n(CCC(=O)N2c3ccccc3CC2C)n1 (stereo unspecified),-11,3,-4,1.7%,-1.2,0.1
CC(=O)Nc1ccc(S(=O)(=O)c2ccnc3cc(Cl)ccc23)cc1,-21,-5,37,0.5%,-4.5,0.4
O=C(CSc1nnc2c(Cl)cc(Cl)cn12)N1CCN(S(=O)(=O)c2ccccc2)CC1,-15,-1,0,-1.2%,-1.9,-0.9
O=C(Nc1ccc(S(=O)(=O)Nc2ncccn2)cc1)C1CC(=O)N(c2ccccc2)C1 (stereo unspecified),-3,3,10,2.3%,-1.9,-0.2
Cc1ccc(S(=O)(=O)NNC(=O)Nc2ccccc2F)c(C)c1,-2,2,-14,0.2%,0.1,-0.5
CN(C)S(=O)(=O)c1ccc(C(=O)OCC(=O)N2CC3(C)CC2CC(C)(C)C3)cc1 (stereo unspecified),-3,6,-4,0.9%,5.0,-0.2
Cc1ccc(-c2nc3cc(C(C)C)ccc3o2)cc1NC(=O)c1cc2ccccc2o1,·,·,-10,-0.4%,·,1.5
CC(C)C1=Nc2cccc3cccc(c23)N1,17,-2,-7,-0.6%,11,-0.7
Cc1ccc(/C(N)=N/OC(=O)c2ccc(Cl)cc2Cl)cc1,?,-1,23,-5.7%,?,3.3

# (list continues)
SMILES,D2 potentiator,Six1-Eya2 blk,TRPML1 inh,PINK1 expr mod,D2 agonist,TRPML1 ag
CC(=O)Nc1ccc(NC(=O)C2CCCN2C(=O)NCc2ccccc2)cc1 (stereo unspecified),-5,3,-2,1.0%,-0.2,-0.5
CC(=O)c1ccccc1NC(=O)COC(=O)c1c(C)nn(-c2ccccc2)c1C,-6,-5,6,2.9%,9.8,1.1
Cc1ccc(S(=O)(=O)NNc2ccccc2)c(C)c1,26,3,-3,4.4%,1.6,0.0
CC(=O)Nc1ccc(C(=O)Cn2nnc3ccccc3c2=O)cc1,-12,0,-2,-1.2%[38.3 µM],1.0,-0.5
Cc1ccc(CCNC(=O)CCNS(=O)(=O)c2ccc3c(c2)c(=O)n(C)c(=O)n3C)cc1,-2,-11,19,-1.3%[38.3 µM],-1.1,-0.1
CCCN(CCC)CCNC(=O)c1cc(-c2ccc(Br)s2)nc2ccccc12,·,·,82,1.7%,·,-0.5
COc1cc(/C=C/c2[nH]c(=O)[nH]c(=O)c2[N+](=O)[O-])cc(OC)c1O,-6,0,-9,-0.2%,-1.3,-0.6
COc1ccc([C@H]2CC(=O)C=C(c3ccc(OC)c(F)c3)C2)cc1,-9,-16,42,0.8%,-0.9,1.6
COCn1c(COc2ccccc2)nc2ccccc21,-5,4,2,-5.3%[38.3 µM],0.3,0.4
Cc1ccc(C(=O)NC=C(Cl)Cl)cc1,-4,-1,-12,0.9%,0.4,0.2
CCOC(=O)C(NC(=O)CC(C)C)(Nc1sc2c(c1C(N)=O)CCCC2)C(F)(F)F (stereo unspecified),-10,19,-12,0.0%,-5.1,-0.4
CC12CCC(=O)N1C(C(=O)N1CCN(c3ccccc3)CC1)CS2 (stereo unspecified),-5,3,-12,-0.6%,2.3,-0.4
CCc1ccc(C2(O)CC(C(F)(F)F)=NN2C(=O)Cc2ccc([N+](=O)[O-])cc2)cc1 (stereo unspecified),-12,-6,58,6.0%,-3.4,2.4
O=C(CCS(=O)(=O)c1ccc(Cl)cc1)Nc1cccc(S(=O)(=O)N2CCCCCC2)c1,-12,-7,41,1.4%,0.4,3.8
CCOC(=O)C1(C)CCCN1C(=O)c1sccc1C (stereo unspecified),-2,10,·,2.3%,2.9,-0.4
Cn1c(=O)c(C(=O)NNC(=O)c2ccccc2F)c(O)c2ccccc21,-2,4,3,2.1%,2.2,14
Cc1nn2cc(-c3cccc(Cl)c3)cnc2c1Br,1,-4,1,2.0%,-3.0,0.0
Cc1cccc(CSc2ncc(Cl)c(C(=O)Nc3nnc(C)s3)n2)c1,·,·,24,0.0%,·,2.1
CC(=O)c1ccc(N2CCN(C(=O)C3CCCN(c4ncnc5c4nc4n5CCCCC4)C3)CC2)cc1 (stereo unspecified),6,-4,-17,0.8%,3.0,-0.4
CCC(C(=O)Nc1cccc(Cl)c1C)n1nc(C)c2sc3ccccc3c2c1=O (stereo unspecified),·,·,3,1.2%,·,0.4

# Single records, as listed above:
# `O=C(CCS(=O)(=O)c1ccc(Cl)cc1)Nc1cccc(S(=O)(=O)N2CCCCCC2)c1` across the screens: D2 potentiator = -12; Six1-Eya2 blk = -7; TRPML1 inh = 41; PINK1 expr mod = 1.4%; D2 agonist = 0.4; TRPML1 ag = 3.8
# `Nc1nonc1-n1nnc(C(=O)N/N=C/c2ccccc2Cl)c1CSc1ccccc1` across the screens: D2 potentiator = -12; Six1-Eya2 blk = -1; TRPML1 inh = -20; PINK1 expr mod = 1.2%; D2 agonist = 1.0; TRPML1 ag = 0.3

# (more compounds)
SMILES,D2 potentiator,Six1-Eya2 blk,TRPML1 inh,PINK1 expr mod,D2 agonist,TRPML1 ag
Cc1ccc(SC2CCN(C(=O)C3CCC(=O)N(C4CC4)C3)CC2)cc1 (stereo unspecified),-17,0,-22,-0.7%,-1.3,-0.9
Clc1cccc(NCc2nnc(SCc3ccccc3Cl)o2)c1,20,9,29,11%,-0.1,-1.7
Cc1ccc(NC(=O)Cc2noc3ccccc23)cc1,-15,5,-6,?,-3.3,-0.8
CCN1CCN(C(=O)C2CCN(Cc3nc(-c4cccc(Cl)c4)oc3C)CC2)CC1,-12,4,-10,3.3%,-4.2,0.4
Cc1cc(C)c(NC(=O)CN(C)C(C)C(=O)N2CCc3ccccc32)c(C)c1 (stereo unspecified),-1,5,-17,-1.6%,11,0.4
O=C(CSc1nnnn1-c1cccc2ccccc12)NC(C(=O)O)(c1ccccc1)c1ccccc1,1,-4,11,-0.5%,2.1,-0.9
CC(=O)c1ccc(N2Cc3ccccc3C2)cc1,-1,-3,15,1.2%,-1.9,-0.4
